# Bead autofluor: compound fluorescence in toxin protease inhibitor counterscreen; compound autofluorescence counterscreen, microsphere flow cytometry; active compounds read high; fluorescence intensity (test concentration not listed); 3.1% of 360,000 active;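 active means at least 3 SD above the mean of all compounds, about 16000 in these data; inconclusive means too few beads counted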;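 further: 100 nL of 1 mM stock went into each well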
# Sa ugtP lethal: growth inhibition of ugtP-null S. aureus, primary screen, RN4220 ugtP deletion, OD600. growth inhibition, % (test concentration not listed). 0.54% of 330,000 active. 16 h; some inactives read as strong as hits. AID 1259309, 2017;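 active means z-score under -3 and OD600 up to 0.15 on both plates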;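 further: plate controls were untreated wells for no effect and antibiotic for full effect; wells of about 80 µL received 100 nL stock; the first replicate is given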
# BJeLR viability: MLPCN primary cell-based screen for lethality selective to Ras in HRASV12 cells. BJeLR (HRASV12) viability, CellTiter-Glo ATP luminescence, 48 h; reference of the scale not given here. inhibition, % (test concentration not listed). 0.17% of 300,000 active. AID 1554, 2009;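 active means replicate mean above 50%; inconclusive means above 50% but judged a plate artefact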;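 further: 50 nL library stock added to about 25 µL; numbers are from one replicate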
# Mtb hypoxia rep: PubChem AID 1159583 | M. tuberculosis hypoxia-regulated fluorescent reporter, fluorescence | fluorescence inhibition, % (test concentration not listed) | 0.1% of 300,000 active;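 active means 35 to 45% if threefold the growth effect, above 45% if 1.5-fold the growth effect; inactive means the rest, general growth blockers included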;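 further: wells of about 50 µL received 100 nL stock; 0% = vehicle wells and 100% = reference inhibitor wells; whole bacteria with a GFP reporter of the hypoxia response; strong numbers were not always called active; many hits fall short of the cut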
# Sa RN4220 lethal: growth inhibition of S. aureus RN4220, primary screen, OD600; 16 h; inhibition, % (test concentration not listed); 0.33% of 330,000 active; AID 1259311, 2017;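 active means z-score of -3 or lower and OD600 up to 0.18 on both plates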;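 further: plate controls were untreated cells for no effect and reference antibiotic for full effect; stock transfer was 100 nL into about 80 µL; one replicate is shown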
# PrP UTR inh: inhibition of PrP 5' UTR reporter expression. inhibition, % (test concentration not listed). AID 488862, 2010. cell-based PrP 5' UTR mRNA reporter, plate reader. 0.35% of 340,000 active;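 active means every replicate at 50% or more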;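 further: 0 = median of the neutral control wells; tested in H4 reporter cells; numbers are from one replicate; inactives centre near -14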
# Mtb hypoxia rep growth: also measured in Mtb hypoxia rep; calls as there; growth inhibition, %; measured here: M. tuberculosis growth (absorbance);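 0% = vehicle and 100% = reference antibiotic; read after six days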
# The depositor's hits bear a star; ? = inconclusive; . = no result given.
# Below each compound – Bead autofluor	Sa ugtP lethal	BJeLR viability	Mtb hypoxia rep	Mtb hypoxia rep growth	Sa RN4220 lethal	PrP UTR inh
Cc1nc2sc(C(c3ccc(Cl)cc3)N3CC(C)OC(C)C3)c(O)n2n1 (configuration not stated)
  3430	11	2	.	.	4.2	1
C[C@@H]1CN([C@@H](C)CO)C(=O)c2cccc(NC(=O)Nc3ccccc3)c2O[C@H]1CN(C)C(=O)Nc1cccc2ccccc12
  3865	8	.	-9	9	12	5
O=C(/C=C/c1cccs1)Nc1nncs1
  ?	4	-7	9	9	-5.8	-52
Cc1ccc(NS(=O)(=O)c2cccc(C(=O)N/N=C/c3c(C)nn(-c4ccccc4)c3N3CCCC3)c2)c(C)c1
  2688	.	1	.	.	.	-6
O=C(c1cccs1)N1CCN(S(=O)(=O)Cc2ccccc2)CC1
  4452	3	5	-67	1	4.4	-9
COc1ccc(NC(=O)C(C)N(c2ccc(C)cc2)S(C)(=O)=O)cc1 (configuration not stated)
  9862	9	-14	4	-2	0.7	-52
O=C(COC(=O)/C=C/c1ccccc1)NNC(=O)c1ccc([N+](=O)[O-])cc1
  ?	0	-4	-3	-4	3.7	-10
CC1CCN(c2c(NCc3ccc(C(=O)NCc4ccco4)cc3)c(=O)c2=O)CC1
  6056	13	-3	8	3	1.5	-6
Clc1cccc(CN2CCCCCCC2)c1Cl
  2530	11	2	2	5	9.8	-7
Cc1ccc2nc(Nc3nc(CSc4nnc(C)s4)cc(=O)[nH]3)nc(C)c2c1
  4948	-1	-1	11	4	6.5	-20
Cc1ccc(/C=C2/Sc3ccc(C(=O)NCc4ccccn4)cc3NC2=O)cc1
  5296	-17	-3	0	6	-1.4	-6
CC(C)NC(=O)Nc1ccc2c(c1)C(=O)N(C(C)CO)CC(C)C(CN(C)C(=O)NC1CCCCC1)O2 (configuration not stated)
  .	-6	.	9	9	5.9	.
COC(=O)NNC(=S)NCc1ccccc1
  2538	1	-10	-1	14	-1.4	-24
CN(CC(=O)Nc1cccc(F)c1)C(=O)C1CC(=O)N(Cc2ccccc2)C1 (configuration not stated)
  5625	7	3	-4	-3	2.6	-22
CCCN1C(=O)/C(=C\c2nc3ccccc3c(=O)[nH]2)c2ccccc21
  4652	4	.	12	17	0.7	-4
COc1cccc(NC(=O)CN(c2ccc([N+](=O)[O-])cc2)S(=O)(=O)c2ccccc2)c1
  2563	-8	-14	1	-7	2.0	-34
COc1ccc(NC(=O)C(C#N)=Cc2ccc(OCc3ccccc3F)cc2)cc1
  .	5	.	11	16	9.4	.
Cc1ccc(NC(=O)c2ncn(CC(=O)N3CCN(c4ccccn4)CC3)n2)cc1C
  3841	0	.	-2	5	0.0	-25
CCOc1cc(NC(=S)NC)c(OCC)cc1NC(=O)c1ccco1
  2326	9	-6	5	6	20	3
CC(C)(C)C(=O)Nc1ccc(Sc2ccc([N+](=O)[O-])cc2)cc1
  2663	-37	5	0	-4	-11	1
Cc1cc(C)c(OCC(=O)Nc2ccc(S(=O)(=O)N3CCOCC3)cc2)c(C)c1
  6320	0	5	13	0	-1.7	-21
O=C(O)c1ccccc1-c1ccccc1C(=O)NCc1cccc(C(F)(F)F)c1
  4558	.	3	.	.	.	-13
CN(C(=O)CCCN1C(=O)c2cccc3cccc(c23)C1=O)c1ccccc1
  2616	-3	-7	7	9	4.1	-12
CCOc1ccc(/C=C/C(=O)c2ccccc2)cc1OC
  2086	.	11	.	.	.	-123
COC(=O)c1cccc(NC(=O)CCc2c(C)noc2C)c1
  4035	4	.	4	5	3.3	-12
CC1=C(C(=O)OC2CCCCC2)C(c2ccco2)C2=C(CC(C)(C)CC2=O)N1 (configuration not stated)
  2463	-1	0	.	.	-5.7	-11
Oc1ccccc1CNc1ccc2c(c1)OCCO2
  4413	4	4	6	2	1.6	-16
CCOC(=O)c1ccc(NC(=S)N2CCN(CCO)CC2)cc1
  3633	7	-9	10	4	4.1	-30
Cc1ccc(C)c(/C=N/NC(=S)NCCc2ccccc2)c1
  16047	.	-10	.	.	.	-6
COC(=O)C1=C(c2ccc3ccccc3c2)C[C@@H]2CC[C@H]1N2C(=O)NCCNC(C)=O
  4066	-11	.	1	8	-13	-22

# Continued.
# Below each compound – Bead autofluor	Sa ugtP lethal	BJeLR viability	Mtb hypoxia rep	Mtb hypoxia rep growth	Sa RN4220 lethal	PrP UTR inh
O=C(CS(=O)(=O)Nc1ccc(F)cc1Cl)Nc1ccc(F)cc1Cl
  3064	10	-3	3	0	14	-21
Cc1ccc(OCc2nc(-c3ccccc3)no2)cc1
  5701	2	0	12	8	6.4	-79
CNC(=O)/C(C#N)=C/c1c(F)cccc1Cl
  2087	1	-3	0	7	9.2	-18
Cc1cc(C)c(NC(=O)C2CCCN2C)c(C)c1 (configuration not stated)
  3784	-3	-4	4	5	1.7	-44
COc1ccc(OC)c(S(=O)(=O)N2CCCC(C(=O)N3CCC(C(N)=O)CC3)C2)c1 (configuration not stated)
  3863	9	3	-6	-12	4.8	-2
CN(c1ccccc1)S(=O)(=O)c1cccc2ccccc12
  4567	20	2	25	12	5.2	-25
COc1ccc(CNc2nc(NCc3ccc(OC)cc3)n(C(C)=O)n2)cc1
  11470	7	3	7	10	2.6	-30
CN(C)c1ccc(N2C(=O)CSC2=S)cc1
  2359	5	-5	4	0	12	-11
Cc1ccc2oc(C(=O)N(C)Cc3ccon3)c(C)c2c1
  4282	-2	1	8	3	1.2	-44
CCCOc1ccc(C2C3=C(Nc4nc(N)[nH]c(=O)c42)c2ccccc2C3=O)cc1 (configuration not stated)
  4229	4	10	6	-4	-0.3	-6
COCCCNC(=S)N(Cc1ccccc1)Cc1ccccc1
  1959	8	6	1	10	8.6	2
Cc1ccc([N+](=O)[O-])cc1NC(=O)CN(C(=O)c1ccc(Cl)cc1)C1CCCCC1
  9436	-24	-19	0	1	-5.6	-27
CCOP(=O)(OCC)/C(C#N)=C/c1ccc(-c2ccc(F)cc2F)o1
  3812	-8	-1	9	7	2.1	-11
CCN(CC)C(=O)Oc1ccc(Cl)c2cccnc12
  5283	4	5	0	0	3.0	-15
CCN(CC)c1ccc(/C=N/Nc2nc3ccccc3[nH]2)c(O)c1
  2350	.	60*	.	.	.	-4
COC(=O)C(=NNc1ccc(C)cc1)N1CCCc2ccccc21
  .	19	.	4	-3	-4.5	.
O=C(CSc1ccccc1F)NCC(c1cccs1)N1CCOCC1 (configuration not stated)
  .	6	.	11	12	6.8	.
N#Cc1cnn(Cc2ccccc2)c1/N=C/N1CCOCC1
  4195	.	-8	.	.	.	-7
Cn1c(N)c(C(=O)c2ccc(Cl)cc2)c(=O)n(C)c1=O
  2204	5	4	3	0	8.3	-13
COc1ccc(CNC(=O)C2=CCN(S(=O)(=O)c3ccc(C)cc3)CC2)cc1
  4303	4	-4	5	5	3.0	-10
COc1ccc(NC(=O)/C(Cl)=C(/Cl)S(=O)Cc2ccccc2)cn1 (configuration not stated)
  2727	88*	27	.	.	51	27
Cc1cc(C)c(S(=O)(=O)N(C)CC(=O)NCc2ccccn2)c(C)c1
  4869	5	7	5	20	3.6	-18
Cc1cccc(C=NNC(=O)c2ccc(NC(=O)c3ccc(F)cc3)cc2)n1
  .	-14	.	8	-1	7.0	.
CC(C)NC(=O)C(=O)c1cn(C)c2ccccc12
  4738	5	-3	8	1	-6.2	-14
Cc1ccc(C(=O)NCC(=O)NCC(=O)OCc2ccc(F)cc2)cc1
  2032	-2	-26	-2	-2	0.7	-8
CCOC(=O)c1c(S(=O)(=O)N2CCCC(C(=O)Nc3cccc(C)n3)C2)c(C)n(C)c1C (configuration not stated)
  5245	6	5	2	-2	0.0	-6
COc1cccc(C(=O)c2cc3ccc(O)cc3oc2=O)c1
  11732	-9	23	-5	5	3.1	-25
Cc1nnc(NC(=O)CCn2c(=O)oc3ccc(Cl)cc32)s1
  5371	3	3	6	-4	3.4	-9
Cc1cc(C)cc(C(=O)N2CCC(C(N)=O)CC2)c1
  4759	1	3	.	.	-0.3	-24
COc1ccc(CCC(=O)Nc2cccc(Cl)c2)cc1
  2622	-10	-7	2	2	4.8	-18

# (more compounds)
# Below each compound – Bead autofluor	Sa ugtP lethal	BJeLR viability	Mtb hypoxia rep	Mtb hypoxia rep growth	Sa RN4220 lethal	PrP UTR inh
O=C(CN1CCC(NC(=O)C2CCCCC2)CC1)NCc1ccco1
  4081	0	0	12	11	3.4	-7
COc1ccccc1CN1CC(C(=O)NCc2cccc(Cl)c2)CCC1=O (configuration not stated)
  5763	1	-6	1	0	0.6	1
CC1(C)CC(c2nc(-c3ccccc3)cs2)CCS1 (configuration not stated)
  2437	2	8	-8	-2	-5.9	-16
COc1ccc2c(c1)c1nc3ccccc3nc1n2CCn1c(=O)oc2ccccc21
  16506*	-6	-15	-7	11	-0.7	-37
Clc1ccc(/C=N/Nc2ncnc3ccccc23)cc1Cl
  11150	.	2	.	.	.	-85
Cc1cc(C)c(NC(=O)C=CC(=O)O)c([N+](=O)[O-])c1
  .	0	.	11	7	-0.4	.
COc1cccc(-n2cc(C(=O)O)c3ccccc3c2=O)c1
  8551	-8	13	-1	2	2.9	-27
COCCn1c(SCC(=O)c2ccc3c(c2)OCCO3)nnc1C(C)C
  2335	-1	15	-5	-6	-3.9	6
Cc1ccc(S(=O)(=O)NNC(=S)NCC2CCCO2)cc1 (configuration not stated)
  3943	-1	10	4	-1	4.0	-10
COc1cccc(CNc2ccc3[nH]c(=O)[nH]c3c2)c1OCc1ccccc1F
  4217	-9	-25	-8	0	0.2	-16
CCC(=O)NN=Cc1ccc(-c2ccc(Cl)cc2)o1
  .	5	.	3	8	9.9	.
Nc1nccnc1C(=O)NN=Cc1ccco1
  .	0	.	2	-2	1.2	.
CCc1cccc(CC)c1NC(=O)COc1ccccc1C(=O)c1cc(C#N)c(=O)n(C2CCCCC2)c1
  7772	-11	4	6	6	3.1	1
O=C(N/N=C/c1ccc2ncccc2c1)c1cccc([N+](=O)[O-])c1
  4049	.	-11	.	.	.	-28
CC(=O)Nc1cc(C(N)=O)c(Cl)cc1Cl
  ?	-1	6	6	8	8.2	-26
CC(C)(C)c1ccc(NC(=O)c2ccccc2)c([N+](=O)[O-])c1
  2446	7	1	-2	0	1.1	-16
O=c1oc2cc([N+](=O)[O-])ccc2nc1/C=C(\O)c1cccc(Br)c1
  3373	-11	-5	-10	0	11	-15
Cc1ccc(NS(=O)(=O)c2cc3c4c(cccc4c2)C(=O)NC3=O)cc1
  2500	-5	4	-5	4	-0.3	-10
CC(=O)Nc1ccc(-c2ccccc2)s1
  2383	.	-9	.	.	.	-15
CS(=O)(=O)c1ccc(C(=O)NCC(c2ccco2)N2CCCCC2)cc1 (configuration not stated)
  4528	4	3	-5	7	6.4	2
CCOC(=O)C1(CCOc2ccccc2)CCN(Cc2cc(OC)ccc2OC)CC1
  4499	-1	-3	-7	6	-2.7	-24
O=C1C2ON(c3ccccc3)C(c3ccncc3)C2C(=O)N1c1ccccc1 (configuration not stated)
  20412*	-4	-9	5	7	7.6	-33
O=C(Nc1ccc2c(c1)OCCO2)C(=O)NC1CC1
  5849	4	-5	0	3	2.8	-94
CCc1nc2ccccc2c(C(=O)OCC(=O)NCc2ccco2)c1C
  2828	4	-12	1	5	3.6	-68
CC1CCCN(C(=O)CNC(=O)c2ccco2)C1 (configuration not stated)
  4562	11	0	12	-9	2.6	-5
COc1ccc2oc(=O)c(NC(=O)C3CCCCC3)cc2c1
  9723	1	9	2	4	0.6	-29
COc1ccc(C2C(C(=O)O)CCC(=O)N2c2ccc(OC)cc2)cc1 (configuration not stated)
  9977	5	-4	0	5	1.2	-28

# Exported with each value named: part of the list above
CC1(C)CC(c2nc(-c3ccccc3)cs2)CCS1 (configuration not stated)
  Bead autofluor = 2437	Sa ugtP lethal = 2	BJeLR viability = 8	Mtb hypoxia rep = -8	Mtb hypoxia rep growth = -2	Sa RN4220 lethal = -5.9	PrP UTR inh = -16

COc1ccc2c(c1)c1nc3ccccc3nc1n2CCn1c(=O)oc2ccccc21
  Bead autofluor = 16506*	Sa ugtP lethal = -6	BJeLR viability = -15	Mtb hypoxia rep = -7	Mtb hypoxia rep growth = 11	Sa RN4220 lethal = -0.7	PrP UTR inh = -37

Clc1ccc(/C=N/Nc2ncnc3ccccc23)cc1Cl
  Bead autofluor = 11150	Sa ugtP lethal = .	BJeLR viability = 2	Mtb hypoxia rep = .	Mtb hypoxia rep growth = .	Sa RN4220 lethal = .	PrP UTR inh = -85

Cc1cc(C)c(NC(=O)C=CC(=O)O)c([N+](=O)[O-])c1
  Bead autofluor = .	Sa ugtP lethal = 0	BJeLR viability = .	Mtb hypoxia rep = 11	Mtb hypoxia rep growth = 7	Sa RN4220 lethal = -0.4	PrP UTR inh = .

# Screening results deposited in PubChem BioAssay by several laboratories.
